D2 potentiator – potentiates the human D2 dopamine receptor allosterically; P14416; DiscoveRx D2 beta-arrestin cells, luminescence, 90 min; 100% = 57 uM dopamine signal; potentiation, % (no concentration beside the values); 0.23% of 360,000 active; active = potentiation of 50% or more; inconclusive = 30% to 50%; inactive = 30% or less;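 note: compound concentration not given in the record; tested on top of an EC20 dose of dopamine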
Target sequence (P14416 whole entry, looked up): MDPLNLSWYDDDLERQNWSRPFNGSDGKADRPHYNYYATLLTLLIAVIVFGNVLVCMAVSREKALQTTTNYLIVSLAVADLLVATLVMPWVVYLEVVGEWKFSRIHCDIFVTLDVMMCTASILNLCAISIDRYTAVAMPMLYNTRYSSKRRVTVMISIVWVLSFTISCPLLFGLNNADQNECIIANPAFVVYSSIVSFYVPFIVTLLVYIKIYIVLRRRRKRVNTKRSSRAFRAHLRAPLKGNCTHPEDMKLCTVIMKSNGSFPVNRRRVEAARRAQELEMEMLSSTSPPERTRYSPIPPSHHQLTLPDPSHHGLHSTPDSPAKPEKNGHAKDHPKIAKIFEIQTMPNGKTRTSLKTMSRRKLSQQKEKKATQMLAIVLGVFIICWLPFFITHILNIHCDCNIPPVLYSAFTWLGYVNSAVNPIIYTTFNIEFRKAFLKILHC
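PathHunter beta-arrestin assay in DiscoveRx D2 cells. Compounds were added with an EC20 of dopamine (50 nM final) for 90 min at 37 deg C. Luminescence was read 1 h after detection reagent, with 57 uM dopamine as the EC100 control.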
D2 ag – agonists of human D2 dopamine receptor (beta-arrestin); P14416; DiscoveRx PathHunter D2 beta-arrestin, luminescence, 90 min; 100% = 57 uM dopamine signal; activation, % (no concentration beside the values); 0.084% of 360,000 active; AID 624465; in the data active = activation above about 40%; inconclusive = about 15% to 40%; inactive = below about 15%; note: compound concentration not given in the record; the text of the record calls up to 30% inactive
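Agonist mode: compounds alone added to overnight-plated D2 PathHunter cells for 90 min at 37 C, with 57 uM final dopamine (EC100) defining full response. Beta-arrestin recruitment detected by chemiluminescent reagent, read after 1 h at ambient temperature.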
TRPML1 blocker – inhibitors of human TRPML1 channel; Q9GZU1; TRPML1-inducible cells, Ca2+ dye fluorescence, FDSS; stronger effect = lower value; inhibition of EC80 agonist-evoked calcium signal; activity change, negative = inhibition, % (no concentration beside the values); 0.02% of 390,000 active; AID 624415; in the data active means activity change below about -50%; inconclusive means about -30% to -50%; inactive means above about -30%;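 note: stimulus is agonist 54-4 at its EC80 concentration; % is set by controls: 0 for no effect and ±100 for the full control effect; compound concentration not given in the record; the text of the record puts the active cut at -80%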
Target sequence (Q9GZU1 whole entry, looked up): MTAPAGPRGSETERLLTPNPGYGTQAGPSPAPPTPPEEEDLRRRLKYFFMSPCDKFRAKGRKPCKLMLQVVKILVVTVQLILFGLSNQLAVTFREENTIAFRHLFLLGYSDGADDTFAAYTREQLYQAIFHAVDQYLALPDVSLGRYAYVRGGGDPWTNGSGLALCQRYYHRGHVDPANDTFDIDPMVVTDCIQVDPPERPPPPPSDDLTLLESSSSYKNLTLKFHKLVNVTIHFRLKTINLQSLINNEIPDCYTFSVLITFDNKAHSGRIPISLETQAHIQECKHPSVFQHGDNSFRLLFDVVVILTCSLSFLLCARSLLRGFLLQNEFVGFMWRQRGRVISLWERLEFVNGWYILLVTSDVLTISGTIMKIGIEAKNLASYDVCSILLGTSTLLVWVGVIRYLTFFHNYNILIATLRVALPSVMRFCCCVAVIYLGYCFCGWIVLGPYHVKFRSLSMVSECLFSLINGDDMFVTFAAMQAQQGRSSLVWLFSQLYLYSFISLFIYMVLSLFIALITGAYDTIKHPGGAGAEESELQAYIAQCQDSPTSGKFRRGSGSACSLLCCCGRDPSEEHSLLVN
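Tet-induced TRPML1-DL cells loaded with Ca8 no-wash calcium dye were read kinetically on FDSS. Compound addition was followed by EC80 agonist 54-4 (4 uM final); inhibition was read over 110 s.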
PINK1 modulator – modulators of PINK1 expression. Potency, µM (series often up to 76.6 µM), inactives show at the top dose activation (PINK1 increase), actives largely listed as activators. AID 624263. 0.2% of 410,000 active. PINK1 immunofluorescence, high-content cytometry, 24 h; active = well fitted activation curve with a large enough effect; inconclusive = small, poorly fitted or top-dose-only effect; inactive = flat fitted curve, though single readings scatter; cell line not stated here;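 note: potency is the fitted concentration of half-maximal effect; % of control where 0% means no effect; nearly all actives have a fitted effect of over 65% in size; a mitochondrial uncoupler was the plate control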
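Stable cell line treated 24 h with compounds at 5 concentrations (CCCP controls), then fixed and immunostained for PINK1 plus nuclear and cell stains; PINK1 immunofluorescence quantified by laser-scanning microplate cytometry.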
TRPML1 agonist – activates the human TRPML1 channel; Q9GZU1; TRPML1-expressing cells, Ca2+ dye fluorescence, FDSS; host cell line not named in the record; reference of the full effect not given here; activation, % (test concentration not listed); 0.12% of 410,000 active; in the data active = activation above about 50%; inconclusive = about 30% to 50%; inactive = below about 30%; note: 0% is about no effect; the text of the record puts the active cut at 80%
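In this qHTS format, compounds were pin-transferred onto Ca8-dye-loaded TRPML1-DL cells induced with Tet overnight, and intracellular Ca2+ fluorescence was recorded kinetically for 110 s after a 10 s baseline. A subsequent 4uM final 54-4 (EC80) addition followed by a second 110 s read served as the antagonist phase.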
Six1-Eya2 blk – blocks human Six1 binding to Eya2 | 0.56% of 360,000 active | Q15475+O00167 | AlphaScreen GST-Six1/His-Eya2 binding, biochemical; stronger effect = lower value; control for the full effect not named in the record | activity change, % (no concentration beside the values) | AID 651725; in the data active = activity change below about -65%; inconclusive = about -30% to -65%; inactive = above about -30%; note: % is set by controls: 0 for no effect and ±100 for the full control effect; compound concentration not given in the record
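Homogeneous AlphaScreen proximity assay pairing GST-Six1 with His-tagged Eya2 (added as 5X mix: 250 nM and 500 nM) in 50 mM Tris pH 8.0, 300 mM NaCl, 1 mM TCEP. Glutathione donor and nickel acceptor beads; 1 h, 37 °C, dark.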
An asterisk follows results filed as active; ? = inconclusive; . = no result given; & = joins results of further samples; [ ] = another dose, or the depositor's remark.

SMILES | D2 potentiator | D2 ag | TRPML1 blocker | PINK1 modulator | TRPML1 agonist | Six1-Eya2 blk
CCCCN(CC)C(=O)Cn1ncc2c3ccccc3n(CCC)c2c1=O | -9.1 | 0.1 | -0.4&6.5 | ? | -1.2&1.4 | 4.1
COc1cc(S(=O)(=O)NC2CCCCC2)ccc1F | -11.1 | -1.9 | -0.1 | ? | -0.6 | 22.8
CC(=O)Nc1ccccc1OCC(=O)NC(C)c1ccc(F)cc1 (stereo unspecified) | 6.1 | 1.4 | -6.2 | 0.1% | 0.0 | 5.6
COCCCN1C(=O)c2ccc(C(=O)NCc3ccccn3)cc2C1=O | -14.6 | 0.8 | 35.5 | -0.1% | -0.7 | -0.2
COc1cc(S(=O)(=O)NC2CCCC2)c(OC)cc1C | -9.7 | -1.2 | -9.3 | -0.1% | -0.3 | -5.3
Cc1[nH]nc(SCC(=O)Nc2cccc(O)c2)c1[N+](=O)[O-] | -6.9 | 4.8 | 8.8 | 0.0% | 1.6 | -8.8
COc1ccc(CC(=O)N2CCN(c3ccccn3)CC2)cc1OC | 0.1 | 2.2 | -12.0 | -1.7% | -0.5 | 5.3
Cc1cnc(NC(=O)c2ccc(-c3ccc([N+](=O)[O-])cc3)o2)s1 | 1.2 | 7.1 | 4.8 | ? | -0.7 | -2.5
Cc1nnc(SCC(=O)N2N=C(c3ccc(Cl)cc3)CC2c2ccco2)[nH]c1=O (stereo unspecified) | -8.0 | -0.7 | 4.3 | 0.8% | 1.0 | -20.7
CCOCCn1c(SCc2ccccc2)nc2c1c(=O)[nH]c(=O)n2C | 0.6 | 5.1 | -0.4 | -0.1% | 0.6 | 4.7
CCN1/C(=c2/s/c(=C3/C(=O)N(c4ccccc4)N=C3C)n(CC)c2=O)C=Cc2ccccc21 | -4.3 | -4.0 | 9.5 | 0.0% | 0.0 | -11.1
COC(=O)Cn1cc(/C=C/[N+](=O)[O-])c2ccccc21 | 1.8 | 7.4 | -20.0 | 6.4% | 6.1 | -3.8
O=C(NCCc1ccccc1Cl)C1CCC(=O)N(CCCc2ccccc2)C1 (stereo unspecified) | -4.0 | -0.1 | -16.1 | -2.2% | 4.4 | 0.9
CCn1c(=O)c2cc(C(=O)NCc3cc(OC)ccc3OC)sc2c2ccccc21 | . | . | 0.9 | 1.8% | 0.1 | .
Cc1nn(CC(=O)NCC2CCCO2)c(=O)c2cc3ccccc3n12 (stereo unspecified) | -4.8 | -1.9 | 1.9 | 2.2% | 0.3 | 13.4
COc1cc2cc(CNc3ccc(C)cc3)c(=O)n(CC(=O)Nc3ccc(F)cc3F)c2cc1OC | . | . | 32.7 | 2.6% | 3.6 | .
O=C(NC(=S)Nc1nc(-c2ccc(Br)cc2)cs1)c1cccnc1 | -11.1 | -0.1 | 16.0 | 23.6%[38.3 µM] | 0.5 | 1.0
Cc1ccccc1C(=O)c1cccn1CC(=O)N1CCCCC1 | -11.2 | -3.5 | -10.4 | 2.8% | 0.1 | 9.2
CCOc1ccc(C(=O)Nc2nnc(SCC(=O)NCC3CCCO3)s2)cc1OCC (stereo unspecified) | -15.1 | -2.1 | 13.8 | -0.1% | -0.4 | 3.5
CCN1CCN(Cc2nc3cc(NC(=O)c4cccc([N+](=O)[O-])c4)ccc3n2CC)CC1 | . | . | 6.0 | 3.2% | 0.4 | .
CCN1CCC(N(Cc2ccc(F)cc2)C(=O)Nc2cc(Cl)ccc2C(=O)OC)CC1 | . | . | 3.4 | 1.4% | -0.6 | .
Clc1ccc2nc(N3CCNCC3)nc(-c3ccccc3)c2c1 | -35.2 | -9.3 | 22.7 | -1.7% | 1.7 | 43.1
CCOc1cc(C(=O)Nc2cccc(C(C)=O)c2)ccc1OCC(=O)N1CCCCC1 | 2.0 | 6.2 | 4.0 | -1.3% | 0.2 | -10.9
COC(=O)c1c(C)[nH]c(C(=O)COC(=O)CCc2ccc(OC)c(OC)c2)c1C | -6.9 | -5.3 | -13.1 | -0.2% | 0.3 | 1.4
Nc1c(C(=O)NCc2ccccc2)nnn1Cc1ccc(F)cc1 | 1.4 | 0.7 | 3.5 | 6.8% | 2.5 | -1.2
COC(CNC(=O)c1ccc(CS(=O)(=O)c2ccc(Br)cc2)o1)OC | -6.7 | 14.1 | 33.2 | -0.3% | 0.3 | -3.3
Cc1cc(C)c(S(=O)(=O)N(C)Cc2cnn(C)c2)c(C)c1 | -8.4 | -0.4 | -9.2 | -0.5% | -1.1 | -1.7
c1ccc(Sc2ccccc2CN2CCCC2)cc1 | -15.5 | -7.1 | -3.1 | 4.7% | 2.0 | -1.2
O=C(COC(=O)COc1ccccc1)NC12CC3CC(CC(C3)C1)C2 | -4.2 | -2.2 | 7.0 | 3.4% | -1.7 | -0.9
Cc1cccc(S(=O)(=O)Nc2nc3ccccc3nc2OC(C)C)c1 | -5.1 | 2.1 | -19.3 | -1.0% | -1.1 | 0.0
CC(=O)N1CCOc2ccc(S(=O)(=O)NCc3ccc(Cl)cc3)cc21 | -18.4 | -5.0 | 14.6 | -0.3% | 0.7 | -4.3
Fc1ccc(-c2nnc(-c3ccc(Cl)cc3Cl)o2)cc1 | -5.9 | -6.4 | 20.6 | 2.4% | -0.6 | -1.3
O=C(CSc1nnc(-c2ccc(C(F)(F)F)cn2)o1)Nc1ccccc1Cl | -11.6 | -2.3 | 1.4 | 0.6% | 2.9 | -84.0*
N#CCCn1c(SCC(=O)c2c[nH]c3ccccc23)nc2ccccc21 | -4.2 | -1.6 | 12.5 | 4.3% | -0.3 | -10.8
O=C(Nc1ccccc1F)c1nc(S(=O)(=O)Cc2ccccc2F)ncc1Cl | . | . | -6.3 | 1.2% | 0.7 | .
CCS(=O)(=O)N1CCc2cc(C(=O)Nc3cc([N+](=O)[O-])ccc3C)ccc21 | . | . | -1.9 | 0.9% | 0.4 | .
Cc1nnc(-c2ccc(N3CCCCCC3)c([N+](=O)[O-])c2)o1 | 0.2 | -9.0 | 13.5 | -0.1% | 0.6 | -6.8
Cc1cc(-c2ccc(F)cc2)n2ncc(-c3ccccc3)c2n1 | 5.2 | 1.4 | -17.5 | 21.9% | 1.4 | 21.4
CCC(C)c1ccc(S(=O)(=O)N2CCN(c3ccccn3)CC2)cc1 (stereo unspecified) | 1.6 | -0.5 | 9.2 | 1.4% | 0.2 | 10.4
CC(=O)NCC(=O)OC(C(=O)c1ccccc1)c1ccc(Cl)cc1 (stereo unspecified) | -10.4 | -6.5 | -1.0 | -2.1% | 0.2 | 7.1
O=C(c1cccc(F)c1)N1CCC(c2c[nH]c3ccccc23)(c2c[nH]c3ccccc23)CC1 | . | . | -14.3 | 2.0% | -0.8 | .
CS(=O)(=O)c1ccc(Cl)c(NC(=O)CCCSc2ccccc2)c1 | -12.5 | -1.4 | 20.2 | 0.6% | 0.4 | -1.8
Cn1c(=O)oc2cc(S(=O)(=O)Nc3ccccc3F)ccc21 | -6.1 | -3.6 | 6.2 | 1.1% | -1.4 | 7.7
N#CCCN(C(=O)c1ccco1)c1ccccc1 | -13.6 | -4.6 | 1.1 | -0.3% | -0.4 | 3.8
COC(=O)c1ccc(/C=N/NC(=O)C(=O)NCc2ccccc2)cc1 | -2.1 | 3.6 | 3.2 | 4.2% | -0.3 | 2.3

Two entries from above, field by field:
Cn1c(=O)oc2cc(S(=O)(=O)Nc3ccccc3F)ccc21
  D2 potentiator = -6.1 | D2 ag = -3.6 | TRPML1 blocker = 6.2 | PINK1 modulator = 1.1% | TRPML1 agonist = -1.4 | Six1-Eya2 blk = 7.7
COC(=O)c1ccc(/C=N/NC(=O)C(=O)NCc2ccccc2)cc1
  D2 potentiator = -2.1 | D2 ag = 3.6 | TRPML1 blocker = 3.2 | PINK1 modulator = 4.2% | TRPML1 agonist = -0.3 | Six1-Eya2 blk = 2.3

Additional compounds follow.
SMILES | D2 potentiator | D2 ag | TRPML1 blocker | PINK1 modulator | TRPML1 agonist | Six1-Eya2 blk
Cc1ccc(Cl)cc1N1CCN(C(=O)c2ccc3nc(N4CCC(C)CC4)sc3c2)CC1 | . | . | 0.7 | 0.8% | 0.5 | .
CCN1CCCC1CNC(=O)c1cc2c(-c3cccc(OC)c3)nn(C)c2s1 (stereo unspecified) | -23.9 | 0.4 | 1.4 | -0.5% | 0.5 | -21.3
CCOC(=O)CN1C(=O)N(CC(=O)OCC)C(c2ccccc2)(c2ccccc2)C1=O | -2.1 | 4.7 | 3.6 | -0.5% | -0.6 | -0.1
CC(C)c1ccc(C2CC(=O)c3cnc(NC(=O)c4ccco4)nc3C2)cc1 (stereo unspecified) | -9.4 | 3.9 | -9.0 | 0.9% | -1.7 | -3.7
C/C(=N\OCC(=O)N/N=C/c1ccc(C)cc1O)c1cccs1 | 12.4 | -2.6 | 23.9 | -3.1% | 2.5 | ?
O=C(O)c1cc(S(=O)(=O)N2CCCCC2)ccc1N1CCCCC1 | 3.2 | 1.5 | 4.0 | 0.3% | -0.4 | 1.0
COc1cc2ccccc2cc1C(=O)Nc1ccc(S(=O)(=O)Nc2cc(C)on2)cc1 | -2.8 | -3.2 | 15.4 | -12.4%[38.3 µM] | 1.5 | -7.3
CCOc1ccccc1C(=O)Nc1cc(-c2ccc(C)cc2)no1 | . | . | -4.3 | 0.9% | -0.3 | .
O=C(NC1=NCCS1)c1cccc(OC(F)F)c1 | -1.8 | -6.7 | 16.1 | 3.4% | 1.2 | 0.5
CCc1nnc(SCC(=O)Nc2ccccc2Cl)nc1CC | 10.0 | -1.9 | -7.6&-3.1 | 0.2%&0.7% | -0.6&2.0 | -5.0
COc1cccc(CN2C(=O)c3ccccc3Sc3ccc(C(=O)NCCc4ccc(C)cc4)cc32)c1 | . | . | -6.5 | 1.0% | -0.6 | .

Compounds shown so far containing an aryl methoxy group (9):
SMILES | D2 potentiator | D2 ag | TRPML1 blocker | PINK1 modulator | TRPML1 agonist | Six1-Eya2 blk
COc1cc(S(=O)(=O)NC2CCCCC2)ccc1F | -11.1 | -1.9 | -0.1 | ? | -0.6 | 22.8
COc1cc(S(=O)(=O)NC2CCCC2)c(OC)cc1C | -9.7 | -1.2 | -9.3 | -0.1% | -0.3 | -5.3
COc1ccc(CC(=O)N2CCN(c3ccccn3)CC2)cc1OC | 0.1 | 2.2 | -12.0 | -1.7% | -0.5 | 5.3
CCn1c(=O)c2cc(C(=O)NCc3cc(OC)ccc3OC)sc2c2ccccc21 | . | . | 0.9 | 1.8% | 0.1 | .
COc1cc2cc(CNc3ccc(C)cc3)c(=O)n(CC(=O)Nc3ccc(F)cc3F)c2cc1OC | . | . | 32.7 | 2.6% | 3.6 | .
COC(=O)c1c(C)[nH]c(C(=O)COC(=O)CCc2ccc(OC)c(OC)c2)c1C | -6.9 | -5.3 | -13.1 | -0.2% | 0.3 | 1.4
CCN1CCCC1CNC(=O)c1cc2c(-c3cccc(OC)c3)nn(C)c2s1 (stereo unspecified) | -23.9 | 0.4 | 1.4 | -0.5% | 0.5 | -21.3
COc1cc2ccccc2cc1C(=O)Nc1ccc(S(=O)(=O)Nc2cc(C)on2)cc1 | -2.8 | -3.2 | 15.4 | -12.4%[38.3 µM] | 1.5 | -7.3
COc1cccc(CN2C(=O)c3ccccc3Sc3ccc(C(=O)NCCc4ccc(C)cc4)cc32)c1 | . | . | -6.5 | 1.0% | -0.6 | .

High-throughput results (PubChem)

An unsorted share of the library (roughly 1% active in at least one column).
